Screening results as filed in PubChem BioAssay.
Anthrax LT inh: anthrax lethal toxin internalization inhibition; Cells, anthrax lethal toxin internalization, FRET ratio (460/530); Potency, µM (top dose mostly 40 µM), for inactives: at the highest dose activity change, negative = inhibition, actives largely listed as inhibitors; 0.67% of 70,000 active; AID 912; active = well fitted falling ratio curve with the 530 nm signal flat; inconclusive = other ratio curves, or a change in one channel alone; inactive = flat curves in the ratio and both channels; the % refers to the ratio; further: on the % scale 0 is the no-effect control and ±100 the full control effect; nearly all actives have a fitted effect of over 50% in size; tested in ME-180 cells; beta-lactamase reporter
SmPrx2 inh: inhibitors of Schistosoma mansoni peroxiredoxin 2; S. mansoni Prx2 activity coupled to TGR/GSH (TGR is thioredoxin glutathione reductase), NADPH fluorescence loss, qHTS; some inactives read as strong as hits; Potency, µM; 0.07% of 65,000 active; active means full or partial inhibition curve with a strong effect at the top dose; inconclusive means weaker partial or single-point curve; inactive means no accepted curve; further: series up to 57 µM; many of its hits are not listed in these tables
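Enzyme mix: 100 uM NADPH, 25 nM TGR, 700 uM GSH, 50 nM Prx2 in 100 mM phosphate pH 7.4, 10 mM EDTA, 0.01% Tween-20. 15 min RT with compound; NADPH/GSH added, H2O2 starts reaction; NADPH fluorescence read 8 min.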
Active calls of the source: *; ? = inconclusive; / = no result given; ! = repeats disagree; [ ] = another dose, or the depositor's remark. Potency means the concentration at half of the fitted maximal effect. The list is partial. The share of hits here may be higher or lower than overall.

SMILES | Anthrax LT inh | SmPrx2 inh
CC(C(=O)NCc1ccccc1)N(CCN1CCOCC1)C(=O)c1snc(C(N)=O)c1N (centres undefined) | -1% | >57
CCCCCCn1c(N2CCN(c3ccccc3)CC2)nc2c1c(=O)[nH]c(=O)n2C | -3% | >57
Cc1cccc(NC2(C(F)(F)F)N=C3SCCN3C2=O)n1 (centres undefined) | -11% | >57
Cc1ccc(NC(=O)/C(CN(C)C)=N\O)cc1 | 15% | >57
COC(=O)C1C(C(C)C)N(c2ccccc2)OC1(C)O (centres undefined) | -10% | /
CCS(=O)(=O)N1CCC(C(=O)Nc2cccc(C(C)=O)c2)CC1 | -11% | >57
O=C1NCN(c2ccccc2)C12CCN(CCCOc1ccc(F)cc1)CC2 | ? | >57
COc1ccc(CSc2nnc(C)n2N)cc1 | -4% | >57
COc1cccc(CC(=O)Nc2nccs2)c1 | -4% | >57
CCOc1ccc(OCC)c(NC(=O)C2CCCN(S(=O)(=O)c3cnc[nH]3)C2)c1 (centres undefined) | 20% | >57
COCCn1nnnc1C(c1ccccn1)N1CCN(c2cc(C)ccc2C)CC1 (centres undefined) | -11% | >57
O=C1CCC(=O)N1CCOP1(=O)COc2ccccc2OC1 | -6% | >57
O=C(C1CCN(S(=O)(=O)c2ccccc2)CC1)N(CCc1ccccc1)Cc1ccco1 | -20% | >57
Cc1cc(NC(=O)Cc2cccs2)no1 | -2% | >57
CCNC(=O)NC(=O)CSc1cccc(C(F)(F)F)c1 | -3% | >57
CC(=O)Nc1cc2c(nc1C)nc(C)n2Cc1ccc(Br)cc1 | ? | >57
CC(C)(C)c1nnc(NC(=O)C2CCN(c3ncccn3)CC2)s1 | -8% | >57
CC(C)Cn1c(SCC(=O)NC(=O)Nc2ccc3c(c2)OCCO3)nc2ccccc2c1=O | 13% | >57
CCc1sc(NC(=O)COC)nc1-c1ccccc1 | -12% | >57
C=CCN(C(=O)CNC(=O)c1ccco1)C(C(=O)NC1CCCCC1)c1ccccc1 (centres undefined) | 0% | >57

Single values from the list.
Cc1cc(NC(=O)Cc2cccs2)no1 in SmPrx2 inh has >57
O=C1NCN(c2ccccc2)C12CCN(CCCOc1ccc(F)cc1)CC2 in SmPrx2 inh has >57

Continuation:
SMILES | Anthrax LT inh | SmPrx2 inh
COC(=O)c1ccc(C(=O)OC)c(NC(=O)CN2CCN(c3ccccc3OC)CC2)c1 | -7% | >57
c1cncc(-c2ccc3ncnc(NC4CCNCC4)c3c2)c1 | -8% | >57
COc1ccc(Cl)cc1Nc1nc(C)cc(=O)[nH]1 | 7% | >57
COc1ccc(C(=O)CSc2nnc(CNc3nc(-c4ccccc4)cs3)n2C)cc1 | -11% | >57
COC(=O)Nc1ccc(S(=O)(=O)N2CCN(c3ccc(F)cc3)CC2)cc1 | -11% | >57
Cc1ccc(C2(C)NC(=O)N(CC(=O)NC(=O)NCCC(C)C)C2=O)cc1 (centres undefined) | 1% | >57
COc1ccc(NC(=O)CSc2nnc(C3CC3)n2N)cc1 | -9% | >57
c1ccc2c(c1)C(=NCC1CCCO1)NC2=NCC1CCCO1 (centres undefined) | 2% | >57
O=C(OCCOc1ccccc1Cl)c1ccc(-n2cnnn2)cc1 | -9% | >57
O=C(c1ccc(C#Cc2ccccc2)o1)N1CCN(c2ccccn2)CC1 | ? | >57
COC(=O)C1=CN(CCCN2CCCC2=O)C=C(C(=O)OC)C1c1cccs1 | ? | >57
Cc1cccc(N2C(=O)CC(N3CCN(Cc4ccc5c(c4)OCO5)CC3)C2=O)c1 (centres undefined) | -12% | >57
CC(C)(Oc1ccc(Cl)cc1)C(=O)NC1CCSC1=O (centres undefined) | -21% | >57
O=c1[nH]c2ccc(S(=O)(=O)N3CCN(Cc4ccccc4)CC3)cc2[nH]c1=O | 7% | >57
COC(=O)c1[nH]c2ccc(C)cc2c1NC(=O)CCN1CCN(C2CCCCC2)CC1 | -5% | >57
O=C(Nc1cccc(F)c1)N1CCC2(CC1)CCN(C(=O)c1cccc(F)c1)CC2 | ? | >57
Cc1ccc(S(=O)(=O)CCC(=O)OCC(=O)Nc2ncc(Cl)cc2Cl)cc1 | 4% | >57
Oc1ccc(Cl)cc1Sc1cc(Cl)ccc1O | 5µM*! | >57
O=C(c1nc2nc(-c3ccccc3)cc(C(F)(F)F)n2n1)N1CCCCC1 | -12% | >57
O=C(O)c1cc(S(=O)(=O)Nc2ccc3c(c2)OCCO3)c(Cl)cc1Cl | -1% | >57
CCOC(=O)c1nn(-c2ccccc2)c(C(=O)OCC)c1N | 3% | /
CC1(C)CC(=O)C2=C(C1)OC(N)=C(C#N)C2C1CC=CCC1 (centres undefined) | 4% | >57
O=C(Cn1c(=O)sc2ccccc21)NCCOc1ccccc1F | 3% | >57
CCOC(=O)CSc1nnc(CSc2nc(C)cc(C)n2)n1Cc1ccco1 | 2% | >57
Cc1ccc2c(c1)C(c1ccccc1)NCC(=O)N2 (centres undefined) | -9% | >57
CCOC(=O)N1CCN(c2nc(-c3ccc(OC)cc3)no2)CC1 | -1% | >57
C=CCCC(=O)Nc1ccc(COC(=O)N2CCOCC2)cc1 | 0% | >57
COC(=O)c1cccc(N(C(=O)c2cnccn2)C(C(=O)NCc2ccccc2)c2ccco2)c1 (centres undefined) | 2% | >57
Nc1ccc(O)c(-c2nc3ccccc3s2)c1 | ? | >57
COc1ccc(C)cc1NC(=O)CSc1nnc(-c2ccc(C)cc2)o1 | 5% | >57
CCN(CC)c1ccc(N2C(=O)c3ccccc3C2=O)cc1 | ? | >57
CCn1c2ccccc2c2nnc(SCc3cc(=O)n4ccsc4n3)nc21 | 0% | >57
O=C1c2ccccc2C(O)N1c1cccnc1 (centres undefined) | -7% | >57
CC1CCCC(C)N1CCNC(=O)CCn1nc(-c2ccccc2)ccc1=O (centres undefined) | 4% | >57
Cc1ccc(Cn2c(CN3CC(C)OC(C)C3)nc3c2c(=O)[nH]c(=O)n3C)cc1 (centres undefined) | -5% | >57
COC(=O)[C@H](C)NC(=O)C/C=C\[C@@H](C)[C@@H](CO)OC | 14%[1.6 µM] | /
CO[Si](CCCNCCC[Si](OC)(OC)OC)(OC)OC | 0% | /
CC1CCCCC1NC(=O)CN1CCN(Cc2ccccc2Cl)C1=O (centres undefined) | 30% | >57
Cc1ccc(N2CC(C(=O)N3CCN(C(=O)c4ccco4)CC3)CC2=O)cc1 (centres undefined) | 11% | >57
CCOc1ccccc1NC(=O)CN(c1ccc(C)cc1)S(=O)(=O)c1c(C)noc1C | -22% | >57

In another format: four of the compounds above.
smiles	Anthrax LT inh	SmPrx2 inh
CCN(CC)c1ccc(N2C(=O)c3ccccc3C2=O)cc1	?	>57
CCn1c2ccccc2c2nnc(SCc3cc(=O)n4ccsc4n3)nc21	0%	>57
O=C1c2ccccc2C(O)N1c1cccnc1 (centres undefined)	-7%	>57
CC1CCCC(C)N1CCNC(=O)CCn1nc(-c2ccccc2)ccc1=O (centres undefined)	4%	>57

(more compounds)
SMILES | Anthrax LT inh | SmPrx2 inh
Cn1c(CCNC(=O)c2ccco2)nc2cc(NC(=O)c3ccco3)ccc21 | -16% | >57
c1ccc2c(c1)ncn2Cc1nnc2sc(-c3ccncc3)nn12 | 5% | >57
CC1CCN(CCNC(=O)c2ccc3c(=O)n(CCc4ccccc4)c(=O)[nH]c3c2)CC1 | 5% | >57
COc1ccc(C)cc1Nc1cc(C)nc2ncnn12 | 3% | >57
O=C(Nc1cccc(Cl)c1)c1cnn2cccnc12 | 5% | ?
O=S(=O)(c1cccs1)n1cccn1 | 6% | >57
CC(NC(=O)Cc1cccs1)C(c1cccs1)N1CCN(c2ccccc2)CC1 (centres undefined) | -8% | >57
O=C(c1ccco1)N1CCN(c2ncnc3c2oc2ccccc23)CC1 | 3% | >57
O=C(OCc1c(Cl)cccc1Cl)c1ccccn1 | -2% | >57
CCCCOCC1CO1 (centres undefined) | 2% | /
Cc1c(Cl)cccc1NC(=O)CCN1CCCCCC1 | -6% | >57
O=C(NCc1cccc(Cl)c1)c1cnccn1 | -2% | >57
O=C(OCc1nnc(-c2ccccc2)o1)C1=COCCO1 | 0% | >57
O=C(N1CCOCC1)N1CCN(S(=O)(=O)c2ccccc2)C1 | 1% | >57
Cc1ccc(S(=O)(=O)NCc2ccc(C(=O)N(C)CCC#N)cc2)cc1 | -14% | >57
COc1ccccc1-n1c(C)nnc1SCC(=O)Nc1cccc(C(C)=O)c1 | 9% | >57
Cc1ccc2nc(NC(=O)C3CCN(S(=O)(=O)c4ccc5c(c4)oc(=O)n5C)CC3)sc2c1 | ? | >57
CCOC(=O)N1CCN(Cc2nc3c(c(=O)[nH]c(=O)n3C)n2Cc2cc(C)ccc2C)CC1 | -4% | >57
O=C1CC(c2ccccc2)CN1Cc1ccccc1 (centres undefined) | -2% | /
COc1ccc(CC(=O)Nc2cc(Cl)ccc2O)cc1 | ? | >57
O=C(Cc1c(O)c2ccccc2[nH]c1=O)NCc1ccccc1F | -16% | >57
COc1ccc(S(=O)(=O)Nc2ccc(S(=O)(=O)N3CCOCC3)cc2)cc1C | 9% | >57
COc1ccc(C(=O)N=c2nc3ccccn3s2)cc1 | -4% | >57
Cn1c(N)c(C(=O)COC(=O)c2ccc3c(c2)OCCO3)c(=O)n(C)c1=O | -3% | >57
N=C1C(c2nc3ccccc3[nH]2)=C(O)CN1c1ccccc1 | -8% | >57
O=c1c2cc3c(=O)n(CC4CCCO4)c(=O)c3cc2c(=O)n1CC1CCCO1 (centres undefined) | -6% | >57
CC(=O)Nc1ccc(Oc2nc(C)cc(C)n2)cc1 | / | >57
O=C(CSc1nc2ccccc2c(=O)[nH]1)Nc1ccc(S(=O)(=O)N2CCCC2)cc1 | -2% | /
Cc1nnc2ccc(N3CCC4(CC3)OCCO4)nn12 | -14% | >57
N#CC1(c2ccccc2)CCCN1C(=O)c1ccco1 (centres undefined) | 2% | /
CCn1c(=O)cc(N2CCC3(CC2)OCCO3)[nH]c1=O | 2% | >57
COc1ccc(C2C3=C(CC(C)(C)CC3=O)Oc3ncn(CCCn4ccnc4)c(=N)c32)cc1 (centres undefined) | -3% | >57
Cc1ccc(-c2nnn(CC(=O)Nc3ccc4nn(-c5ccccc5)nc4c3)n2)o1 | 0% | >57
COc1ccc(C2C3=C(CCCC3=O)Nc3nc(SCc4ccccc4)nn32)cc1OC (centres undefined) | ? | >57
O=C(O)C1[C@H]2C(=O)N(C3CCCC3)C[C@]23C=C[C@H]1O3 (some centres undefined) | ? | >57
Cc1cccc(NC(=O)C(C)Oc2ccccc2C)n1 (centres undefined) | ? | >57
O=C1OC(N2CCN(c3ccccn3)CC2)c2ccccc21 (centres undefined) | -12% | >57
CCOc1ccccc1N(C(=O)c1snc(C(N)=O)c1N)C(C(=O)NCCC(C)C)c1ccco1 (centres undefined) | ? | >57
CC12CC(NC(=O)N1c1cccc(C(=O)N3CCN(c4ccccn4)CC3)c1)c1ccccc1O2 (centres undefined) | 9% | >57
Cn1c(=O)c2c(nc(CN3CCN(Cc4ccccc4)CC3)n2Cc2cccc(Cl)c2)n(C)c1=O | 23% | >57

Some of these compounds in order of molecular weight, rising:
SMILES | Anthrax LT inh | SmPrx2 inh
CC(=O)Nc1ccc(Oc2nc(C)cc(C)n2)cc1 | / | >57
Cc1nnc2ccc(N3CCC4(CC3)OCCO4)nn12 | -14% | >57
N=C1C(c2nc3ccccc3[nH]2)=C(O)CN1c1ccccc1 | -8% | >57
Cc1ccc(-c2nnn(CC(=O)Nc3ccc4nn(-c5ccccc5)nc4c3)n2)o1 | 0% | >57
COc1ccc(S(=O)(=O)Nc2ccc(S(=O)(=O)N3CCOCC3)cc2)cc1C | 9% | >57

(continued)
SMILES | Anthrax LT inh | SmPrx2 inh
CC(C(=O)NCC1(c2ccccc2)CCCC1)N1CCCC1 (centres undefined) | -24% | >57
COc1cc(CCC(=O)Nc2cc(Cl)ccc2N2CCN(C)CC2)cc(OC)c1OC | -2% | >57
CCOC(=O)c1ccc(Oc2nc(SC)nc(N(C)C)n2)cc1 | ? | /
CCCCn1c(SCC(=O)NCc2cccs2)nc2c1c(=O)n(C)c(=O)n2C | -1% | >57
O=C(O)c1cc(S(=O)(=O)N2CCCCCC2)ccc1Cl | 4% | /
CNC(=O)[C@@]1(C)C=C[C@@H](Cc2ccccc2)N1C(C)=O | -4% | /
COc1cccc2cc(NC(=O)C3CCCCC3)c(=O)oc12 | -14% | >57
C=CCN1C(=O)C(C)(C)Nc2ccccc21 | -14% | >57
COC(=O)c1ccc(Oc2c(C)oc3c(CN4CCN(C)CC4)c(O)ccc3c2=O)cc1 | -1% | >57
COc1cc(C(=S)N2CCCCC2)ccc1OCC(=O)N1CCCC1 | / | >57
Cc1cnc(CNc2cc(-c3ccccc3C)ncn2)cn1 | 6% | >57
COC(=O)C/C=C\[C@H](C)[C@H](CO)NS(=O)(=O)c1ccc(C)cc1 | -17%[8 µM] | /
COc1ccc(OC)c(NC(=O)Cn2cccc2)c1 | -1% | >57

In a second layout: 3 of the compounds above
COC(=O)c1ccc(Oc2c(C)oc3c(CN4CCN(C)CC4)c(O)ccc3c2=O)cc1
- Anthrax LT inh: -1%
- SmPrx2 inh: >57

COc1cc(C(=S)N2CCCCC2)ccc1OCC(=O)N1CCCC1
- Anthrax LT inh: /
- SmPrx2 inh: >57

Cc1cnc(CNc2cc(-c3ccccc3C)ncn2)cn1
- Anthrax LT inh: 6%
- SmPrx2 inh: >57
